# Mtb betalactam: beta-lactam sensitization of Mtb H37Rv; M. tuberculosis H37Rv growth with meropenem, percent inhibition; hits of this screen are not shown here; inhibition, % at 25 µM; 330,000 tested, 0.27% active; AID 434955;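 active = about 74% or more and at least 40 points above the plate without the antibiotic, then above 30% in a dose series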;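 also: growth measured after seven days incubation then overnight dye step; 0% = bacteria only wells and 100% = bacteria with antibiotic; twin plates without the antibiotic show which effects depend on it; some results filed as inactive read as strong as hits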
# Starred values were filed as active, the others as inactive. Some of the compounds tested. The share of hits here may be higher or lower than overall.
canonical_smiles	Mtb betalactam
COC(=O)C1=C(c2cccc(C#N)c2)C[C@@H]2CC[C@H]1N2C(=O)N1CCc2cc(OC)c(OC)cc2C1	1.6
CC(C)(C)c1ccc(-n2ncc3c2CCCC3NC(=O)CCn2cncn2)cc1 (stereo not given)	1.8
Nc1ncnc2c1ncn2C1CCCO1 (stereo not given)	1.6
CC(C)(C)c1ccc(NC(=O)COC(=O)C2CCCC2)cc1	-9.2
CC(C)c1ccc(C2(C)NC(=O)N(CC(=O)NC3CCCC(C)C3C)C2=O)cc1 (stereo not given)	2.5
CC(=O)c1ccc(S(=O)(=O)N2CCNC(=O)C2)cc1	-9.6
CCn1c(SCC(=O)NC2CCCC2)nnc1-c1ccoc1C	-4.5
CC(=NNC(=O)c1cccc(S(=O)(=O)N2CCOCC2)c1)c1ccc(Cl)cc1	5.8
COc1ccc(NC(=O)c2cc(C)nc3ccccc23)cc1S(=O)(=O)N1CCOCC1	-11.2
COc1ccc(S(=O)(=O)Nc2ccc(S(=O)(=O)Nc3cc(C)nc(C)n3)cc2)cc1OC	-3.2
COc1ccc(CCC(=O)NNC(=O)c2cccs2)cc1	-2.0
Nc1ncnc2c1nc(N1CCCCC1)n2[C@@H]1O[C@H](CO)[C@@H](O)[C@H]1O	4.7
CC(C)Cn1c(N)c(C(=O)COC(=O)c2c(O)c(Cl)cc(Cl)c2Cl)c(=O)n(C)c1=O	0.5
COC(=O)[C@@]12CCCCN1[C@H](c1ccc(-c3ccc4c(c3)OCO4)cc1)[C@H]1C(=O)N(C)C(=O)[C@H]12	-10.3
COc1ccc(-n2nc3ccc(N)cc3n2)cc1Cl	8.2
CCOC(=O)CCNC(=O)N1CCCC(N2CCN(c3ccc(OC)cc3)CC2)C1 (stereo not given)	-1.9
CC(C)CN(C(=O)c1ccc([N+](=O)[O-])s1)c1c(N)n(Cc2ccccc2)c(=O)[nH]c1=O	3.7
Cc1cc(C(=O)NNC(=O)c2ccccc2[N+](=O)[O-])c(C)o1	2.3
O=C(OCCc1cc2ccccc2c(=O)o1)c1ccccc1C(F)(F)F	5.9
CN1CCc2cccc(Cl)c2CC1	-8.0
Cc1ccc(S(=O)(=O)NCCC(=O)NNc2c(F)c(F)cc(F)c2F)cc1	-3.3
COC(=O)C1=C(C)N(Cc2ccccc2)C(=NCCc2ccccn2)N[C@H]1c1cccc(C(F)(F)F)c1	44.0
CCOc1ccc(NS(=O)(=O)c2ccc(NC(=O)c3ccccc3C(=O)O)cc2)cc1	-9.9
O=C(CSc1ccc2ccccc2n1)NC1CC1	-4.7
OCC[C@H]1C[C@@H](O)[C@H](O)[C@@]2(Cc3ccccc3CO2)O1	-12.0
Cc1cc(C(=O)NNC(=O)[C@H](C)NC(=O)c2ccc(Br)cc2)c(C)o1	-2.1
COc1ccccc1Nc1nnc(SC(C)C(=O)NC2CC2)s1 (stereo not given)	-7.8
CC(C)C(NC(=O)CCNC(=O)c1ccc(C(C)(C)C)cc1)c1nc2ccccc2[nH]1 (stereo not given)	2.0
CN(CC(=O)Nc1ccccc1Cl)CC(=O)N1CCc2ccccc21	-7.5
CC(C)(C)OC(=O)C[C@H]1C/C=C\C[C@H](CC(=O)N[C@H](CO)Cc2ccccc2)C(=O)N2CCC[C@H]2COC1=O	-3.7
O=C(O)c1cccc2c1C(=O)c1ccc(-c3ccc(F)cc3OCc3ccccc3)cc1S2(=O)=O	35.5
O=c1oc(C2(O)CCCCC2)cc2ccc(-c3ccc4[nH]ccc4c3)cc12	1.8
CC(=O)c1cc2c(cc1NC(=O)Cc1c(C)noc1C)OCO2	-0.5
CC1O[C@@H](OC2C(COC3OC(CO)C(O)[C@H](O)C3O)OC(OC3CC[C@]4(C)C(CC[C@@]5(C)[C@@H]4CC=C4[C@@H]6CC(C)(C)CC[C@]6(CO)C(O)C[C@]45C)C3(C)C)C(O)C2O)C(O)C(O)C1O (stereo not given in full)	-4.0
C=CCn1c(SCC(=O)N2CCOCC2)nc2sc(CC)cc2c1=O	-4.8
O=C(/C=C/c1ccc2c(c1)S(=O)(=O)N(Cc1ccccc1)[C@H]2CC(=O)N1CCOCC1)N1CCOCC1	0.9
CCNC(=O)N1CCN(S(=O)(=O)c2ccc3c(c2)OCCCO3)CC1	-2.3
Cn1cc(C(=O)OCC(=O)N2CCCC2)c2ccccc21	-4.3
COc1ccc(NC(=O)CNC(=O)c2ccco2)cc1S(=O)(=O)Nc1cc(C)ccc1Br	-2.9
CC(NC(=O)COC(=O)CN1C(=O)C2CCCCC2C1=O)c1ccccc1 (stereo not given)	-3.1
O=C(COC(=O)C12CC3CC(CC(Br)(C3)C1)C2)Nc1cccc(S(=O)(=O)N2CCOCC2)c1	-11.2
CCC(C)N(C(=O)c1csnn1)C(C(=O)NC1CCCC1)c1ccccc1F (stereo not given)	-9.4
CCOc1ccc(NC(=O)c2cccc(-n3cccc3)c2)cc1S(=O)(=O)N1CCOCC1	-0.2
COc1ccc(S(=O)(=O)Nc2ccc3c(c2)C(=O)N([C@H](C)CO)C[C@H](C)[C@@H](CN(C)C(=O)NC(C)C)O3)cc1	9.8
C[C@@H]1O[C@@H](OC[C@@H]2O[C@H](Oc3c(-c4ccc(O)cc4)oc4cc(O)cc(O)c4c3=O)[C@@H](O)[C@H](O)[C@H]2O)[C@H](O)[C@H](O)[C@H]1O	0.4

# Filtered by structure: the entries above with a COOH group
canonical_smiles	Mtb betalactam
CCOc1ccc(NS(=O)(=O)c2ccc(NC(=O)c3ccccc3C(=O)O)cc2)cc1	-9.9
O=C(O)c1cccc2c1C(=O)c1ccc(-c3ccc(F)cc3OCc3ccccc3)cc1S2(=O)=O	35.5

# The list goes on.
canonical_smiles	Mtb betalactam
CCc1ccc(OCC(=O)NNC(=O)c2ccc(NC(=O)C3CC3)cc2)cc1	0.4
Cc1nnc(SCC(=O)Nc2cc(S(=O)(=O)N3CCCC3)ccc2Cl)n1C1CC1	-3.0
CCOC(=O)C1=C(C)Nc2ccccc2N=C1NC(=O)c1cc(C)on1	4.6
NS(=O)(=O)c1cccc(NC(=O)CSc2nnc(-c3ccncc3)n2C2CC2)c1	3.2
N#CC(Br)Br	-0.3
CN(C(=O)COC(=O)c1ccc(Br)c(S(=O)(=O)N2CCOCC2)c1)C1CCCCC1	0.3
CSCCC(NC(=O)COc1ccccc1)C(=O)N(C)Cc1cccc(F)c1 (stereo not given)	-1.3
O=C(CNC(=O)c1ccc(Cl)cc1)NCc1ccccn1	-8.3
CC1(C)O[C@@H]2[C@H](O1)[C@@H](CO)O[C@H]2n1ccc(=O)[nH]c1=O	-0.7
CON(C)C(=O)CC1(CN(Cc2ccccc2)C(=O)OC(C)(C)C)CCCCC1	-6.0
CC1CCC2(CC1)NC(=O)N(CC(=O)NCc1ccc(Cl)cc1)C2=O (stereo not given)	-9.3
COc1ccccc1CC(=O)N1CCN(c2ccc(F)cc2)CC1	-11.0
CC[C@]12c3[nH]c4ccccc4c3CCN1C(=O)C(CC(=O)NCCCOC)C[C@@H]2C(=O)N1CCN(C(=O)C2CC2)CC1 (stereo not given in full)	-14.6
COc1ccc(CCNC(=O)COC(=O)c2cnc(Cl)c(Cl)c2)cc1	4.5
Cc1ccc(S(=O)(=O)N2CCN(C(=O)COC(=O)c3cc([N+](=O)[O-])ccc3NCCO)CC2)c(C)c1	2.3
CC[C@H](C)[C@H]1O[C@]2(CC[C@@H]1C)C[C@@H]1C[C@@H](CC=C(C)[C@@H](O[C@H]3C[C@H](OC)[C@@H](O[C@H]4C[C@H](OC)[C@@H](O)[C@H](C)O4)[C@H](C)O3)[C@@H](C)C=CC=C3CO[C@@H]4[C@H](O)C(C)=C[C@@H](C(=O)O1)[C@]34O)O2	93.4
COc1cc2cnc(CCO[C@H]3CCCCO3)cc2cc1OC	-2.9
Cc1ccc(C(=O)NCc2ccc(Cl)cc2)cc1S(=O)(=O)N1CCCCC1	-4.4
CCc1sc(C(=O)Nc2cc(S(=O)(=O)N3CCOCC3)ccc2OC)cc1C	-3.0
CCN(CC(=O)Nc1cc(Cl)ccc1C)C(=O)Cc1ccsc1	-1.0
COc1ccc(NC(=O)CSc2nc3[nH]c(=O)cc(O)c3s2)c(OC)c1	6.7
CCOC(=O)c1c(C)[nH]c(C)c1C(=O)COC(=O)c1cccs1	3.5
O=C1C=C(c2ccc(F)cc2OCc2ccccc2)C[C@@H](c2ccc(Cl)cc2)C1	-3.7
O=C(COC(=O)c1ccc(O)cc1)NC(=O)NCc1ccccc1	-1.1
COc1ccc(S(=O)(=O)N2CCOCC2)cc1NC(=O)c1ccncc1	1.2
O=C(Nc1cccnc1)c1ccc(Cl)c(Cl)c1	1.1
CC1CCN(CCCN2C(=O)C3C(C(=O)Nc4ccc(Cl)cc4)C4C=CC3(O4)C2C(=O)NC2CCCCC2)CC1 (stereo not given)	2.2
CC(C)(Sc1ccc(CCN(CCCCC2CCCCC2)C(=O)NC2CCCCC2)cc1)C(=O)O	3.9
N#Cc1ccc(C(=O)N(Cc2ccccc2)c2ccccc2)cc1	-5.5
CC(OC(=O)c1ccc(Cl)nc1)C(=O)NC1CCCC1 (stereo not given)	-0.2

# Some of the entries so far, as labelled records:
SMILES: COC(=O)[C@@]12CCCCN1[C@H](c1ccc(-c3ccc4c(c3)OCO4)cc1)[C@H]1C(=O)N(C)C(=O)[C@H]12
  Mtb betalactam: -10.3

SMILES: COC(=O)C1=C(c2cccc(C#N)c2)C[C@@H]2CC[C@H]1N2C(=O)N1CCc2cc(OC)c(OC)cc2C1
  Mtb betalactam: 1.6

SMILES: CC(C)(C)c1ccc(-n2ncc3c2CCCC3NC(=O)CCn2cncn2)cc1 (stereo not given)
  Mtb betalactam: 1.8

SMILES: CN(CC(=O)Nc1ccccc1Cl)CC(=O)N1CCc2ccccc21
  Mtb betalactam: -7.5

# (cont.)
SMILES | Mtb betalactam
CC(NC(=O)c1ccco1)C(=O)N1CCN(c2cccc(C(F)(F)F)c2)CC1 (stereo not given) | -0.5
CC(C)n1nc(C(=O)Nc2cccc(S(=O)(=O)N3CCCCC3)c2)c2ccccc2c1=O | -2.9
COc1ccc(S(=O)(=O)N2CCOCC2)cc1C(=O)NCc1ccccc1CN1CCCC1 | -7.8
CC1CN(S(=O)(=O)c2cc(C(=O)N(C)Cc3cccs3)ccc2Cl)CC(C)O1 (stereo not given) | 1.2
C[C@]12CC[C@H](O)C[C@H]1CC[C@@H]1[C@@H]2C[C@@H](O)[C@]2(C)[C@@H](C3=CC(=O)OC3)CC[C@]12O | -4.9
O=C(COc1ccccc1F)Nc1nc(-c2ccccn2)cs1 | 92.1
CC(C)Cn1c(=S)[nH]c2cc(C(=O)NCc3ccccc3F)ccc2c1=O | -1.7
O=C(COC(=O)c1cnc(Cl)c(Cl)c1)NC1CCCCCC1 | 56.8
COc1ccc(N2CCN(C(=O)c3cccc(S(=O)(=O)N4CCOCC4)c3)CC2)cc1 | -6.0
O=C(COC(=O)c1ccc([N+](=O)[O-])cc1Cl)NCc1ccco1 | 65.1
Cc1ccc2c(c1)[C@H]1[C@H](CO2)[C@H](c2ccccc2)[C@]2(C)C(=O)N(Cc3ccco3)CC(=O)N12 | 7.2
Nc1nc(N)nc(-c2cc(F)ccc2O)n1 | -5.7
CC(C)(C)NC(=O)CSc1nnc(-c2c[nH]c3ccccc23)o1 | -6.1
N#Cc1ccc(C(=O)Nc2cc(-c3ccccc3)nn2-c2ccccc2)cc1 | -0.5
O=C(COC(=O)CC1CCCCC1)Nc1c(Cl)cccc1Cl | 8.5
O=C1C(Cc2ccccc2)Nc2ncnc(N3CCCCC3)c2N1Cc1ccccc1 (stereo not given) | -2.2
C=CCC[C@H](Cc1ccc(F)cc1)C(=O)OC[C@H](C)NC(=O)[C@H](CC=C)CC(=O)NCCO | 1.9
COCc1c(C(=O)NCC2COc3ccccc3O2)oc2ccccc12 (stereo not given) | -3.1
COC(=O)C1=C(c2cc3ccccc3s2)C[C@@H]2CC[C@H]1N2C | 0.0
COC(=O)C1=C(c2c(C)noc2C)C[C@@H]2CC[C@H]1N2C(=O)NCCCOC(C)C | 1.4
COc1ccc(C(=O)OCC(=O)Nc2ncc([N+](=O)[O-])s2)cc1OC | -13.8
Cc1nn(CC(=O)N2CCN(C(=O)c3ccco3)CC2)c(C)c1[N+](=O)[O-] | 0.1
O=C(NCCc1ccccc1)c1ccc(S(=O)(=O)N2CCCC2)cc1 | -8.8
CCCCn1nc(C(=O)N(CC)CC(=O)Nc2c(F)cccc2F)c2ccccc2c1=O | -5.2
CN(c1ccccc1)S(=O)(=O)c1cccc(NC(=O)CSc2nnc(C3CC3)n2C)c1 | -2.4
CCOc1ccc(C(=O)OC(C)C(=O)N2CCN(Cc3ccccc3)CC2)cc1 (stereo not given) | -7.9
O=C(NCCCN1CCCC1=O)C1CCN(S(=O)(=O)c2ccccc2)CC1 | 2.8
O=C(COC(=O)/C=C/c1ccc([N+](=O)[O-])cc1)NNC(=O)c1ccccc1 | 2.0
O=C(Nc1ccc(S(=O)(=O)N2CCOCC2)cc1)c1ccccc1F | -3.8
CN(C(=O)COC(=O)C1(C)CC1(Cl)Cl)c1c(N)n(Cc2ccccc2)c(=O)[nH]c1=O (stereo not given) | -9.0
O=C(NCc1ccc2c(c1)OCO2)c1c(-c2ccccc2)sc2ccccc12 | -0.1
NC(=O)C1CCN(C(=O)CCNS(=O)(=O)c2ccccc2F)CC1 | -2.7
C#CCOCCOCCOCCNc1nc(N2CCN(C(=O)CCCCCCCCCCNC(=O)[C@H](CCCCN)n3cc(C)nn3)CC2)nc(N2CCN(C(=O)CCCCCCCCCCNC(=O)[C@@H]([C@H](C)O)n3cc(C)nn3)CC2)n1 | 18.2
CN(CC(=O)NC(=O)NC1CCCCC1)CC(=O)Nc1ccc(OC(F)(F)F)cc1 | 9.4
Cc1ccc(C(=O)N/C(=C\c2cccs2)C(=O)N2CCOCC2)cc1C | -3.6
O=C(CCNS(=O)(=O)c1ccccc1)NNC(=O)c1cccc(Cl)c1 | 0.1
COc1cccc(/C(C)=N/Nc2ccc(S(=O)(=O)N3CCCCC3)cn2)c1 | 8.3
CC(C)(C)c1nnc(NC(=O)CCS(=O)(=O)Cc2ccccc2)s1 | 0.6
CCOc1ccccc1C(=O)OCC(=O)NCCc1ccc(OC)cc1 | 3.4
